Screening results as filed in PubChem BioAssay.
VDR inh: blocks the human vitamin D receptor; VDR-SRC2-3 peptide fluorescence polarization, 2 h; Potency, µM, for the others: max response, negative = inhibition, most hits filed as inhibitors; P11473; 0.93% of 400,000 active; AID 504847; active = well fitted inhibition curve with a large enough effect; inconclusive = small, poorly fitted or top-dose-only effect, or another doubt; inactive = no such curve, though single readings can be large or run the other way; note: series mostly up to about 120 µM
Target sequence (P11473 whole entry, looked up): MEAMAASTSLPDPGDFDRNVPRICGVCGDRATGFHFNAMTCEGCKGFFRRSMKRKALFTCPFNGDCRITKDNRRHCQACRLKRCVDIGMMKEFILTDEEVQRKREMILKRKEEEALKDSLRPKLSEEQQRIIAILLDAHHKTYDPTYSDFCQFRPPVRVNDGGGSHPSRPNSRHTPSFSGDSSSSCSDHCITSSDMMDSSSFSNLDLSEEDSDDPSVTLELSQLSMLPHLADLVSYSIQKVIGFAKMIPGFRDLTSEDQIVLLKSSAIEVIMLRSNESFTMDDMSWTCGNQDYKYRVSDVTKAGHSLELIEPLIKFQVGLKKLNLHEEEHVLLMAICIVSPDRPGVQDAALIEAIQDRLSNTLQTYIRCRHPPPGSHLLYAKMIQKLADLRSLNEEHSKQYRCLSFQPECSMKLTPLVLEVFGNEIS
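Compounds are added to VDR with labelled SRC2-3 coactivator peptide and held 2 h at room temperature. Inhibition of the VDR–peptide interaction is then read as a change in fluorescence polarization.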
The depositor's hits bear a star; ? = inconclusive; & = joins results of further samples; [ ] = dose if it differs, or a comment. % is set by controls: 0 for no effect and ±100 for the full control effect; potency is the fitted concentration of half-maximal effect. A portion of the library, so the mix of outcomes need not match the whole.

SMILES | VDR inh
CC1CCCCN1C(=O)c1cc2c(=O)n3ccccc3nc2s1 (centres undefined) | -8%
CCCN(CCC)S(=O)(=O)c1ccc(Cl)c([N+](=O)[O-])c1 | 9%
CC[C@@]1(C(=O)OC)N[C@H](CN(C)C(=O)c2ccc(F)cc2)[C@@H]2C(=O)N(Cc3ccccc3)C(=O)[C@@H]21 | -11%
CCC(C)NS(=O)(=O)c1ccc(NC(=O)CNCc2cccs2)cc1 (centres undefined) | 4%
Cc1c(NC(=O)CSC(=S)N2CCCC2)c(=O)n(-c2ccccc2)n1C | -18%
CCOC(=O)c1sc(NC(=O)CN(CC)CC)c(C(=O)OCC)c1C | 10%
COc1cccc(CNC(=O)CN2C(=O)COc3ccc(S(=O)(=O)Nc4ccccc4)cc32)c1 | 15%
O=c1c2ccccc2ncn1-c1ccc(Br)cc1[N+](=O)[O-] | 6%
CCC(C)c1ccc2oc(-c3ccc(NC(=O)c4cc5ccccc5o4)cc3)nc2c1 (centres undefined) | 23%
O=C(Nc1ccccc1F)Oc1cccc(OC(=O)Nc2ccccc2F)c1 | 14%
OCCNCC(O)Cn1c2ccccc2c2ccccc21 (centres undefined) | -11%
COc1ccc(NC(=O)CCc2nc3c(C)nn(-c4ccc(C)cc4)c3n(C)c2=O)c(OC)c1 | 14%
CCCCN(C)CCNC(=O)C(NC(=O)C1CCC(C)CC1)C(C)C (centres undefined) | -2%
O=C(Nc1ccccc1F)C(Cc1ccccc1)n1cccc1 (centres undefined) | -2%
CCOP(=O)(OCC)C(NC(=O)Nc1ccc(C)cc1)C(N)=O (centres undefined) | -2%
S=C(Nc1ccc(Br)cc1)Nc1ccc2c(c1)OCCO2 | 4%
COc1ccc(NC(=O)C2CC(=O)N(c3cc(C)ccc3C)C2)cc1 (centres undefined) | -8%
CCOC(=O)c1c(NC(=O)CSc2nnc3c(Cl)cc(Cl)cn23)sc2c1CCC2 | -14%
CCC(C)N(C(=O)COc1ccc(Br)cc1C=O)C1CCS(=O)(=O)C1 (centres undefined) | -9%
COc1ccc(-n2cc(C(=O)NCc3ccc(Cl)cc3)c3ccccc3c2=O)cc1 | -3%
Cc1c(Cl)cccc1S(=O)(=O)Nc1ccnn1C | 13%
Cc1nc2cc(C(F)(F)F)ccc2n1C | 17%
O=C(CCNC(=O)OCC1c2ccccc2-c2ccccc21)NOCc1ccccc1 | -11%
CCN(CC(=O)Nc1c(F)cccc1F)C(=O)c1cc([N+](=O)[O-])ccc1N1CCOCC1 | 4%
O=c1c2nccnc2[nH]c(=S)n1Cc1ccccc1Cl | -5%
Continuation.
SMILES | VDR inh
Cn1c(-c2ccccc2)cnc1SCc1nc2ccccc2c(=O)[nH]1 | -15%
Cc1c(NC(=O)c2ccc(Cl)s2)c(=O)n(-c2ccccc2)n1C | -19%
CN(Cc1ccc(OC(F)F)cc1)C(=O)c1ccc(S(=O)(=O)N(C)c2ccccc2)cc1 | -14%
O=C1C2=C(S[C@@H]3O[C@H](CO)[C@@H](O)[C@H](O)[C@H]3O2)C(=O)c2ccccc21 | 35µM*
O=C1CCCN1Cc1ncnn1-c1ccccc1 | 8%
CC(=O)NC(N(C#N)c1nc(Cl)nc(N(C)C)n1)C(Cl)(Cl)Cl (centres undefined) | -18%
Cc1ccc(S(=O)(=O)N(C)C)cc1NC(=O)CCNC(=O)c1ccco1 | 31%[activator]
CCC(=O)N1CCN(c2cc(C)ccc2C)CC1 | -8%
Cc1cccc(N2CCN(S(=O)(=O)c3ccc4c(c3)C(C)(C)C(=O)N4C)CC2C)c1 (centres undefined) | 1%
COc1cccc(N(C(=O)Cn2nnc(-c3ccc(C)o3)n2)C(C(=O)NC(C)(C)C)c2cccs2)c1 (centres undefined) | 13%
O=C1NC(=S)S/C1=C\c1cc(Cl)cc(Cl)c1O | ?
COc1ccc2[nH]c3c(c2c1)CCN1C(=O)C(CC(=O)NCCc2ccccn2)C[C@H](C(=O)N(C(C)C)C(C)C)[C@@]31C (some centres undefined) | -9%
N#CC1=C(N)NC(=S)C(C(N)=O)C1c1ccc(Cl)cc1Cl (centres undefined) | 22µM*
CCn1c(CNC(=O)c2ccco2)nnc1SCC(=O)c1ccc(F)cc1 | 3%
COc1ccc(Cl)cc1NC(=O)COC(=O)C1=NNC(=O)CC1 | 8%
O=C(CNC(c1ccccc1)c1ccccc1)Nc1ccccc1Br | 7%
CCN(CC)S(=O)(=O)c1ccc(NC=C(C#N)C#N)cc1 | 17%
O=C(c1cccc(S(=O)(=O)N2CCCC2)c1)c1nnc(-c2ccncc2)o1 | -8%
CC(C)c1ccc(C2(C)NC(=O)N(C(C)C(=O)Nc3ccc(N4CCOCC4)cc3)C2=O)cc1 (centres undefined) | 17%
CCOC(=O)Cn1c(CN(Cc2ccccc2)Cc2ccccc2)nc2c1c(=O)n(C)c(=O)n2C | -7%
O=C(Nc1cc(C(F)(F)F)ccc1F)C1CCC1 | 6%
CCCCNC(=O)/C=C/c1ccc(S(=O)(=O)Nc2ccc(OC)cc2)cc1 | 1%
O=C(CNC(=O)c1cccs1)N=Nc1c(O)[nH]c2ccc(Br)cc12 | 1%
CCC(C)C(=O)Nc1cc([N+](=O)[O-])ccc1Cl (centres undefined) | 8%
Cc1cccc2cc(CN(Cc3ccccc3)C(=O)c3cccc(F)c3)c(Cl)nc12 | 5%
(further entries)
SMILES | VDR inh
CC(C)Nc1ncnc2[nH]ncc12 | -3%
COc1ccc(/C=N/OCC(=O)N2CCCC2)c(OC)c1 | 12%
CC(C)(C)OC(=O)[C@H](Cc1ccccc1)NC(=O)c1nc[nH]c1C(=O)N1CCN(C(=O)OC(C)(C)C)CC1 | -14%
CCC(=NCCc1c(C)[nH]c2ccccc12)C1=C(O)CC(c2ccccc2)CC1=O (centres undefined) | -15%
Cc1ccc([N+](=O)[O-])c(OCCN2C(=O)NC(C)(C)C2=O)c1 | -7%
Cc1n[nH]c(=S)n1-c1ccc(Cl)cc1 | -12%
O=C(N/N=C/c1cc(Cl)cc([N+](=O)[O-])c1O)c1ccccc1NS(=O)(=O)c1cccs1 | -24%
C/C(=N\NC(=O)COc1ccccc1[N+](=O)[O-])c1cccs1 | -12%
O=C(CSc1nc2ncc(Br)cc2[nH]1)c1cccc([N+](=O)[O-])c1 | -13%
CN(C)c1ccc(C=C2C=CC=C2)cc1 | 4%
Oc1c(Br)cc(Br)cc1/C=N/n1c(-c2ccccc2)n[nH]c1=S | ?
Cc1nc2c(sc(=S)n2Cc2ccco2)c(=O)n1CC(=O)Nc1ccc(F)cc1 | -15%
C=CCc1cc(C=Nc2ccc(N3CCOCC3)cc2)cc(OCC)c1O | -18%
CCN(Cc1ccccc1)C(=O)CN1C(=O)COc2ccc(S(=O)(=O)NC3CCCC3)cc21 | -6%&3%
O=C(Nc1ccc(OC(F)(F)F)cc1)C1CCCN(S(=O)(=O)c2ccc(Br)s2)C1 (centres undefined) | -7%
CCOC(=O)N1CCN(C(=S)Nc2ccc(C)cc2C)CC1 | -4%
CC(=O)CCn1cnc([N+](=O)[O-])n1 | 14%
CCCCCCCCOC(=O)C(NC(=O)CCC(=O)Nc1ccc(S(N)(=O)=O)cc1)C(O)c1ccccc1 (centres undefined) | 10%
O=C(c1cc(Cl)ccc1Cl)N1CCOCC1 | 5%
O=C(Cc1ccc(-c2ccccc2)cc1)Nc1ncccc1O | 7%
CC(=O)c1ccccc1NC(=O)c1ccc(OCc2c(C)noc2C)cc1 | -1%
CCCNC(=O)c1ccc2c(c1)nc(C)n2-c1cccc(C)c1 | -2%&5%
Cc1oc(-c2ccc(Cl)cc2)nc1CS(=O)CC(=O)NCc1ccccn1 (centres undefined) | -1%
Cc1ccc(-n2nc(C)c3c(C)c(CCC(=O)NCc4ccccc4)c(C)nc32)cc1 | 7%
CC(C)(C)C1CCC(=NNC(=O)C(=O)NC2CCCCC2)CC1 (centres undefined) | -11%
Other entries follow.
SMILES | VDR inh
Cc1nc2ncnn2c(C)c1CCC(=O)N1CCCCC1 | -3%
CC1CCN(C(=O)Cn2c(=O)c3cccn3c3ccccc32)CC1 | -24%
O=C(COc1ncnc2scc(-c3ccc(Cl)cc3)c12)NCc1ccco1 | 0%
COc1ccc(-c2nn(-c3ccccc3)cc2/C=N/Nc2ccc(S(N)(=O)=O)cc2[N+](=O)[O-])cc1OC | 0%
O=c1nccc(NCc2ccco2)[nH]1 | 13%&-5%
CN(c1ccccc1)S(=O)(=O)c1ccc(NC(=S)NC(=O)c2ccccc2)cc1 | -1%
COc1ccc2c(c1)O[C@@H](c1cccc(C(F)(F)F)c1)[C@H](OC(=O)NCCc1ccc(OC)c(OC)c1)C2=O | 2%
CCn1cc(Br)c(C(=O)N2CCN(c3ccccc3)CC2)n1 | 6%
CCOc1ccc(N2CC(C(=O)N3CCCC3)CC2=O)cc1 (centres undefined) | -9%
COCC(=O)Nc1ccc2nc3n(c(=O)c2c1)CCCCC3 | -18%
Cc1ccccc1NC(=O)CCc1nnc2ccc(N3CCC4(CC3)OCCO4)nn12 | -3%
Cc1cccc(NC(=S)NNc2ncc(C(F)(F)F)cc2Cl)c1 | -20%
CC(C)[C@H]1COCCS(=O)(=O)N1Cc1ccccc1-c1cccc2c1oc1ccccc12 | -3%
CC(C)C(C(=O)N1CCN(Cc2ccccc2)CC1)c1ccccc1 (centres undefined) | 14%
COc1ccc(NC(=O)COC(=O)C2CCCCC2)c([N+](=O)[O-])c1 | -5%
Cc1ccnc(NS(=O)(=O)c2ccccc2)n1 | -11%
Cc1ccc2nsnc2c1S(=O)(=O)Nc1cccc2nsnc12 | -4%
O=C(NCCc1c[nH]c2ccccc12)c1ccc(Cl)cc1 | -1%
CCCCCOc1ccc(NC2=CC(=O)CCC2)cc1 | 16%
Cc1nc2ccc(NC(=O)c3cccc(S(=O)(=O)N(C)c4ccccc4)c3)cc2s1 | -12%
COc1ccc(/C=N\NC(=O)c2cccc(F)c2)cc1COc1ccccc1 | 9%
CC(C)N1C(=O)/C(=C\c2nc3ccccc3c(=O)n2-c2ccccc2)c2ccccc21 | 71µM*
O=C1CC(c2ccccc2)CC(O)=C1C=NCc1ccc(Cl)cc1 (centres undefined) | -1%
CCC1CN(C(=O)N2CCC(C(=O)NCc3ccc(C)o3)CC2)c2ccccc2O1 (centres undefined) | 7%&3%
COc1ccc(/C=C(\C#N)C(=O)NCc2cccnc2)cc1OC | 4%
(cont.)
SMILES | VDR inh
O=C(Nc1ccccc1F)c1ccc(S(=O)(=O)NCC2CCCO2)cc1 (centres undefined) | 8%
COc1cccc([C@@H]2Oc3ccc(Br)cc3C(=O)[C@H]2OC(=O)NS(=O)(=O)c2ccc(C)cc2)c1 | -11%
NC(N)=Nc1nc(-c2ccccc2)c2cc(Cl)ccc2n1 | -6%
O=c1c2ccccc2nnn1CSc1nc2cc(Cl)ccc2c(=O)n1Cc1ccco1 | -20%
O=S(=O)(CCN1CCOCC1)c1ccc(OC(F)(F)F)cc1 | -28%
O=C(CCS(=O)(=O)c1ccccc1)Nc1ccc(Cl)cn1 | 0%
CCN(C[C@H]1N[C@@](C)(C(=O)OC)[C@H]2C(=O)N(Cc3ccccc3)C(=O)[C@@H]12)C(=O)COC | -9%
CN(C)CCCNc1ncnc2c1cnn2-c1ccccc1 | -13%
O=C(CSc1nnc(-c2ccco2)n1Cc1ccccc1)NCc1ccccc1 | -11%
CCCCCCNC(=O)Nc1ccccc1 | 5%
CC(=O)c1cccc(NC(=S)NC(=O)c2ccc(Cl)cc2)c1 | -1%
NC(=O)c1cc2ccc(O)cc2oc1=Nc1ccccc1 | -4%
COc1ccc2c(c1)CC(C(=O)NCCCN1CCN(c3ccc(F)cc3)CC1)CO2 (centres undefined) | 3%
O=C(Nc1ccccc1Cl)NC1CCCCCCC1 | -5%
CCOc1ccc(-n2ccnc(SCC(=O)Nc3cccc(OC)c3)c2=O)cc1 | -1%
Cc1nc2c(c(C)c1CCC(=O)NCc1ccc(Cl)cc1)c(=O)n(C)c(=O)n2C | -6%
CCC(Sc1nc2c(sc3ccccc32)c(=O)n1CCCC(=O)NC1CCCC1)C(=O)Nc1cccc(OC)c1 (centres undefined) | 11%
Cc1ccc(C(=O)NCC(c2cccs2)S(=O)(=O)c2cccs2)cc1 (centres undefined) | 6%
COc1ccc(C)cc1NC(=O)CCC(=O)Nc1nnc(C2CCCCC2)s1 | -4%
CNC(=S)NNc1nc(N2CCOCC2)nc(N2CCOCC2)n1 | 2%
COc1cccc(/C=C2/SC(=S)N(CC(=O)NNC(=O)c3ccccc3OC)C2=O)c1 | -12%
Cc1ccc(S(=O)(=O)N2CCN(C(=O)COC(=O)/C=C/c3ccccc3[N+](=O)[O-])CC2)c(C)c1 | -9%
